T cruzi repl: inhibitors of intracellular T. cruzi growth, primary screen, luminescence, NIH3T3 host cells. T. cruzi beta-gal in NIH3T3, 90 h. inhibition, % (concentration not given with the values). 1.4% of 300,000 active;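 active = mean inhibition across valid replicates above about 55%, limit read from the data; inconclusive = mean below that limit but half or more replicates reach it; inactive = mean below it, under half of replicates reach it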;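 also: signal also drops with host cell toxicity which is not excluded here; 0% = plate median of DMSO wells and 100% = zero luminescence signal; higher percent means less beta-gal luminescence so fewer parasites; stock transfer was 50 nL into about 50 µL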
A1 inh: caspase 3/7 activation in MEF A1-2A-BIM cells, primary screen, A1 inhibitor project, cell-based, luminescence, HTS. caspase activation, % (no concentration beside the values). 0.066% of 330,000 active. Caspase-Glo 3/7 luminescence, 3 h; percent of clofoctol response, vehicle zero;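 active = over half of replicate activation scores above 10%, or exactly half above 10 with the replicate mean above 10; inconclusive = replicate mean below 10 yet half the replicates above 10; inactive = over half of replicates below 10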;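 also: wells of about 30 µL received 50 nL stock; many hits fall short of the cut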
RanGTP-Imp inh: inhibitors of RanGTP-importin-beta interaction, primary screen, biochemical, FRET, CFP-Ran, YFP-importin-beta, homogeneous; cell-free CFP-Ran/YFP-importin-beta FRET ratio; Ran GTPase (GTP-bound) - importin-beta complex; inhibition, % (concentration not given with the values); 1.1% of 300,000 active;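 active = most replicates above 15%; inconclusive = exactly half above 15%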;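 also: 0% = DMSO wells and 100% = Ran loaded with GDP instead of GTP; wells of about 40 µL received 100 nL stock; the first replicate is given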
Beta apoptosis: inhibitors of cytokine-induced beta cell apoptosis, primary screen, luminescence | 0.8% of 300,000 active | INS-1E cytokine-induced death, ATP luminescence, 48 h; percent of positive-control rescue, neutral wells zero | protection from apoptosis, % (no concentration beside the values);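 active = all replicates at 75% or more, or half of them and the mean; inconclusive = half reach 75% but not the mean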;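 also: 0% = cytokine-treated negative control wells and 100% = positive control rescue; higher means more ATP so stronger rescue from cytokine killing; wells of about 40 µL received 100 nL stock; the first replicate is given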
Vif TR-FRET: inhibitors of Vif binding to APOBEC3G peptide, primary screen, biochemical, TR-FRET, GST-Vif 1-94, biotin-A3G peptide, dose response retest (AID 1117319); Virion infectivity factor (Human immunodeficiency virus type 1 group M subtype B (isolate …; TR-FRET GST-Vif / biotin-A3G peptide binding; higher % means a stronger effect; test concentration not given here; strong numbers were not always called active; inhibition, %, or IC50 in µM where a hit was titrated; 0.57% of 260,000 active;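 active = above the screen mean plus three standard deviations and confirmed in dose response; inconclusive = results disagree or hit not tested in dose response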;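 also: Vif residues 1-94 fused to GST binding biotinylated APOBEC3G peptide 110-148; 0% = full assay without inhibitor and 100% = GST in place of GST-Vif; retest series ran down from 100 µM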
Calb FLC: C. albicans growth inhibition with fluconazole, primary screen, CaCi-2 strain, Alamar Blue fluorescence; 0.57% of 300,000 active; C. albicans CaCi-2 (fluconazole-resistant clinical isolate) + fluconazole, 48 h; growth inhibition, % (concentration not given with the values);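 active = most replicates above 75%; inconclusive = exactly half above 75%; inactive = most below 75%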;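 also: all wells also contain fluconazole at 8 µg/ml as a sub-toxic cotreatment; 0% = median of DMSO wells and 100% = median of geldanamycin control wells; wells of about 8 µL received 7.5 nL stock; the first replicate is given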
LANA-H2B inh: blockers of LANA interaction with H2A/H2B – biochemical, FP readout, HTS, primary screen | inhibition, % (no concentration beside the values) | 0.6% of 320,000 active | AID 2629, 2010 | cell-free LANA-H2A/H2B peptide, fluorescence polarization; in the data active = inhibition mostly above about 10%, no sharp cut-off; inactive = mostly below about 6.7%;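 also: stock transfer was 7.5 nL into about 10 µL; 0% = median of vehicle wells and 100% = median of positive control wells; one replicate is shown; the record names a cut of 25% in any replicate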
Target sequence (Q9QR71 whole entry, looked up): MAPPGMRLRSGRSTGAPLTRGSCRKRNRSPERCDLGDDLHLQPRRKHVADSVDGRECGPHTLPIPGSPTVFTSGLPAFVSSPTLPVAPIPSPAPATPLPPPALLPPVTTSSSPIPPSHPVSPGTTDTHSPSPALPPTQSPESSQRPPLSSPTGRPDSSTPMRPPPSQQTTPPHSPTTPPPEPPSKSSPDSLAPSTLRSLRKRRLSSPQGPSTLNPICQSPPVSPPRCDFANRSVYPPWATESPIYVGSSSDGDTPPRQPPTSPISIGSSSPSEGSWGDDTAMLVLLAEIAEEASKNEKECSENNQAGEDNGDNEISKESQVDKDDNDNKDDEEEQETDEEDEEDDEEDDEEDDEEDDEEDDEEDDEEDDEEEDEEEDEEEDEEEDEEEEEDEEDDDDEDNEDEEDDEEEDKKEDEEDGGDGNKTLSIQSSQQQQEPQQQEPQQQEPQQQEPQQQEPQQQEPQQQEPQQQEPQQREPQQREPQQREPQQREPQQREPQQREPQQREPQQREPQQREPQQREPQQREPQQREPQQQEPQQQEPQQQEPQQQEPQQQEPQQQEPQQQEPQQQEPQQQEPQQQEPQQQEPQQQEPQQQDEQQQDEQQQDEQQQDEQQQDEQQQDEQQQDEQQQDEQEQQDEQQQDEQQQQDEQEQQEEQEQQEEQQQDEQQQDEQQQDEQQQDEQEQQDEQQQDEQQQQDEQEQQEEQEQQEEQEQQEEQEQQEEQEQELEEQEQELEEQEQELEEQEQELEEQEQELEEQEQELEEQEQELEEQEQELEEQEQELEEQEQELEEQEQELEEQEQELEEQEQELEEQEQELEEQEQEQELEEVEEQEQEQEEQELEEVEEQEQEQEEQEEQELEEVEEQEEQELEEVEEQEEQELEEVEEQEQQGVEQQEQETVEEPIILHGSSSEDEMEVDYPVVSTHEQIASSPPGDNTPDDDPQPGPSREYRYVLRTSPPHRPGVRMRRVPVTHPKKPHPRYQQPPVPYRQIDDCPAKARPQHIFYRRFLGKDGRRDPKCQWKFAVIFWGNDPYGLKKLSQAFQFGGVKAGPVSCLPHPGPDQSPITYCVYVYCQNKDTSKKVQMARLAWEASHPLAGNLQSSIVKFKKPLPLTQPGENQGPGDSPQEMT
AF4-AF9 inh: inhibitors of AF4 peptide binding to AF9, primary screen, biochemical, AlphaScreen, biotin-AF4 peptide, FLAG-AF9, single point. AID 651704, 2012. inhibition, % at 10 µM. Protein AF-9 (Homo sapiens), P42568. 0.47% of 350,000 active;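 active = every replicate reaching a set inhibition limit, whatever the replicate mean, cut at about 25% in these data; inconclusive = mean inhibition reaches that limit but some replicates miss it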;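 also: 0% = plate neutral control median and 100% = total signal loss; the record names both 10 and 1 µM as test concentration; the first replicate is given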
An asterisk follows results filed as active; ? = inconclusive; / = not tested or not shown.

SMILES,T cruzi repl,A1 inh,RanGTP-Imp inh,Beta apoptosis,Vif TR-FRET,Calb FLC,LANA-H2B inh,AF4-AF9 inh
CCOc1ccc(-n2cnnn2)cc1S(=O)(=O)NCc1ccccc1,-11,-0.3,3.2,-3,4%,-10,-4.2,/
O=C(NCc1cccnc1)c1cnc2sccn2c1=O,-11,0.7,?,2,32%,1,3.5,-4.8
O=C(NN=C1CCCCCC1)C(=O)Nc1cccc(Br)c1,12,-1.1,3.1,-8,/,12,0.7,/
CCN=c1scc(C)n1/N=C/c1cc(Br)c(O)c(Br)c1,3,-1.3,2.6,7,?,44,-1.4,9.6
C#CCOc1ccc(/C=C2/C(=O)NN(c3ccccc3)C2=O)cc1OC,-5,0.7,-0.9,0,/,-8,-0.2,0.2
O=C1OC(CCl)CN1Cc1ccc([N+](=O)[O-])cc1 (stereo not drawn),-14,0.5,2.2,-7,/,-1,0.0,0.3
C=CCNc1nc(C(=O)OCC(=O)c2ccc(OC)cc2OC)cs1,5,0.5,-0.7,/,-2%,5,2.0,-0.8
OC(COc1ccc(-c2ccccc2)cc1)CN1CCOCC1 (stereo not drawn),-2,-2.5,5.3,-5,4%,-7,0.0,/
Cc1ccc(C)c(N(CC(=O)N2CCCCCC2)S(C)(=O)=O)c1,0,0.6,-3.8,/,/,2,7.3,0.8
CCc1nnc(NS(=O)(=O)c2ccc(N)cc2)s1,-16,1.3,6.0,4,/,/,-1.2,-2.9
COc1ccc(-c2cccc(NC(=O)c3ccco3)c2)nn1,-17,0.9,-2.7,3,/,17,-0.5,-1.8
CC(=O)COc1cc(C)cc2oc(=O)cc(-c3ccccc3)c12,-3,0.1,-4.3,3,0%,3,0.2,-2.2
CC(C)=N/N=C1/NC(=O)C(CC(=O)Nc2cc(Cl)ccc2C)S1 (stereo not drawn),-3,-0.3,0.2,2,4%,-1,-2.6,/
COc1ccc(OC)c(/C=C/C(=O)OCC(=O)Nc2cccc(Oc3ccccc3)c2)c1,-7,-1.0,6.0,-15,-1%,6,0.6,-6.2
Cc1cccc2c(=O)c(C(=O)NCCCN3CCOCC3)c[nH]c12,-7,0.1,0.3,-9,-2%,-2,12,/
Cc1c(CCC(=O)NCCCN2CCCC2=O)c(=O)oc2cc(O)ccc12,-20,0.0,10,0,/,2,-6.2,-2.0
Cc1ccc(Nc2nc(-c3c(C)nc4ncccn34)cs2)cc1,-44,0.7,1.3,9,5%,21,5.5,/
CCC1CCCCN1C(=S)Nc1ccc(SC(F)F)cc1 (stereo not drawn),-34,0.4,1.4,-6,/,7,-2.5,-0.4
CCOC(=O)c1csc(-c2ccc([N+](=O)[O-])cc2)n1,-9,-0.2,-0.4,-5,11%,10,-2.8,-0.8
c1ccc(Nc2nc(Nc3ccccc3)nc(N3CCNCC3)n2)cc1,43,0.5,-2.4,11,2%,10,-0.1,7.3
COc1ccc(NC(=S)NNC(=O)Cn2nc([N+](=O)[O-])cc2C)cc1,1,-0.5,-1.0,-1,8%,35,4.2,/
COc1ccc(NC(=O)c2sc(Cl)nc2-c2ccccc2)cc1,-11,0.8,-1.0,2,-24%,22,-2.3,3.7
O=C(O)c1ccccc1NS(=O)(=O)c1ccc(NN=Cc2cccc(Cl)c2)c([N+](=O)[O-])c1,/,1.8,/,-4,7%,/,4.8,1.4
OC1(c2ccc3c(c2)OCO3)CCN(Cc2ccc(F)cc2)CC1,12,1.0,2.9,0,-2%,-2,-0.8,3.1
COCC1CCCN(Cc2nc(-c3ccc4c(c3)OCO4)no2)C1 (stereo not drawn),-3,-0.3,0.7,-1,-3%,-1,-1.3,1.2
CCn1c2ccccc2c2cc(NC(=O)CN3CCCC3)ccc21,-8,-0.5,4.5,0,14%,-1,1.1,11
COC(=O)c1ccc([N+](=O)[O-])c(CS(=O)(=O)c2ccc(Cl)cc2)c1,20,-0.2,-2.4,0,4%,9,-8.7,-6.1
CC(C)N1CC(O)=C(c2nc3ccccc3c(=O)[nH]2)C1=N,-13,0.9,2.3,-6,-2%,6,2.4,/
CC(C)[C@@H]1N[C@]2(C(=O)Nc3ccccc32)[C@@H]2C(=O)N(c3cccc(C(F)(F)F)c3)C(=O)[C@@H]21,-3,-0.2,-4.1,-3,7%,3,0.5,/
CCOc1cc(Cl)c(NC(=O)CC)cc1OCC,1,0.0,-2.6,1,-7%,-5,3.4,/
COc1ccccc1OCCCOc1ccc(C)cc1Br,-1,0.0,2.8,-2,/,9,-9.1,/
Cn1c(CC(=O)Nc2ccc(F)cc2)c(Sc2ccccc2)c2ccccc21,46,0.7,0.6,-10,13%,26,-2.9,-0.3
COc1ccc(C2C(C(N)=O)=C(C)Nc3nc(-c4ccccc4OC)nn32)cc1OC (stereo not drawn),6,-0.7,3.7,-11,2%,3,-2.3,/
Cc1nc2ccccn2c1C(=O)/C=C/c1ccc(F)cc1,-7,1.5,0.1,-7,5%,0,1.0,/
COc1ccc(OC)c(NC(=O)CSc2ccccc2)c1,-5,-0.4,-3.8,-6,23%,-3,-0.1,/
O=C(c1cccc(Br)c1)N1CCN(S(=O)(=O)N2CCCCCC2)CC1,6,0.0,2.2,/,3%,7,2.9,0.2
CCCc1cc(=O)oc2cc(C)cc(OC(C)C(=O)NCc3cccnc3)c12 (stereo not drawn),-1,0.7,-2.5,-2,/,1,-6.5,-7.3
CCOc1ccc(NC(=O)NCC2CCN(Cc3ccc(F)cc3)CC2)cc1,37,0.1,-1.2,-3,-8%,1,-2.4,1.0
CCOC(=O)/C=C/C(=O)Nc1ccc(-c2nnc3n2CCCCC3)cc1,-9,-0.5,-4.0,-6,-7%,-3,-5.5,0.7
C=CCN1C(=O)C(CC(=O)O)SC1=Nc1ccc(C)cc1 (stereo not drawn),-1,-0.7,-3.9,-1,-5%,-12,1.3,-1.5
O=C(Nc1ccc(F)cc1F)c1cc(-c2ccc3c(c2)OCO3)on1,4,-4.9,4.3,1,/,-6,-2.6,-0.5
C#CC(=O)N(c1ccc(OC)cc1OC)C(C(=O)NC1CCCC1)c1cccs1 (stereo not drawn),16,1.5,-3.6,64,-4%,-20,-1.0,1.1
CCc1cccc(NC(=O)C2CCCN(c3ncnc4c3nc3n4CCCCC3)C2)c1 (stereo not drawn),7,0.4,0.9,6,/,15,1.0,4.2
COc1ccc(S(=O)(=O)N2CCN(C(=O)c3c(C)nn(-c4ccccc4)c3C)CC2)cc1,/,-0.3,/,-6,1%,/,-0.3,0.0
O=C(Cc1ccccc1)Nc1ccnn1C1CCN(Cc2nccs2)CC1,0,-0.1,2.1,-1,4%,-7,-2.1,2.8
CC(/C=N/Nc1nc(N2CCCCC2)nc(N2CCCCC2)n1)=C\c1ccccc1,2,-1.2,-0.9,2,-3%,-8,2.2,/
O=C1Nc2ccc(Br)cc2C1=Nc1cccnc1,-13,0.4,1.0,-13,3%,-2,-2.1,-0.4
NC(=O)c1cc(S(=O)(=O)N2CC=C(c3ccccc3)CC2)cs1,9,0.7,-1.3,0,/,-1,7.1,1.0
Cc1cc(N2CCN(C)CC2)nc(-c2ccccc2O)n1,50,0.0,2.6,-6,6%,1,-0.9,3.6
Cc1ccc(C(c2nnnn2CS(=O)(=O)c2ccc(C)cc2)N2CCN(c3ncccn3)CC2)cc1 (stereo not drawn),18,0.1,?,-5,4%,-6,-0.3,/
O=C(CCC1CCCCC1)Nc1c2c(nn1-c1ccc(F)cc1)CS(=O)(=O)C2,6,0.6,2.8,2,-5%,6,-1.1,/
COc1cccc(C(=O)c2ncc(C(F)(F)F)cc2Cl)c1,-3,0.3,2.9,-2,-4%,31,4.9,-0.1
CCN(CC)S(=O)(=O)N1CCC(C(=O)NCCN2CCOCC2)CC1,-2,0.0,4.9,6,4%,1,-3.3,/
Clc1cccc(Cl)c1/C=N/Nc1c(Cl)cncc1Cl,10,-0.4,-1.4,/,0%,1,1.7,1.3
Cc1cc(OCCCC(=O)NCCc2nnc3ccccn23)ccc1Cl,/,-0.4,/,-4,/,/,-0.9,-1.3
Cc1ccc(C(C)(C)NC(=O)C2CCC(=O)N(Cc3ccccc3F)C2)cc1 (stereo not drawn),5,-1.3,0.0,6,/,-5,0.2,1.0
CCCc1cc(=O)oc2c3c(c(Cl)cc12)OCN(CCCO)C3,-12,0.5,62*,0,/,-2,8.0,/
Cc1cccc(NC(=O)COc2ccccc2C(=O)NC(C)c2ccccc2)c1 (stereo not drawn),27,-0.2,3.6,10,5%,3,2.8,/
COC(=O)Nc1ccc(S(=O)(=O)N2CCCCCC2)cc1,5,0.1,1.0,3,-2%,2,0.6,/
C/C(=N\NC(=O)CSc1nc2ccccc2c(=O)n1-c1ccccc1C)c1cccs1,33,0.0,-4.0,8,/,-5,-1.4,-18

Profiles from above.
CC(/C=N/Nc1nc(N2CCCCC2)nc(N2CCCCC2)n1)=C\c1ccccc1 is listed as T cruzi repl: 2; A1 inh: -1.2; RanGTP-Imp inh: -0.9; Beta apoptosis: 2; Vif TR-FRET: -3%; Calb FLC: -8; LANA-H2B inh: 2.2; AF4-AF9 inh: /
CCc1cccc(NC(=O)C2CCCN(c3ncnc4c3nc3n4CCCCC3)C2)c1 (stereo not drawn) is listed as T cruzi repl: 7; A1 inh: 0.4; RanGTP-Imp inh: 0.9; Beta apoptosis: 6; Vif TR-FRET: /; Calb FLC: 15; LANA-H2B inh: 1.0; AF4-AF9 inh: 4.2

(further entries)
SMILES,T cruzi repl,A1 inh,RanGTP-Imp inh,Beta apoptosis,Vif TR-FRET,Calb FLC,LANA-H2B inh,AF4-AF9 inh
Cc1c(C#N)c2ccccc2n1CC(=O)NCc1cccnc1,5,0.3,4.3,-3,-5%,-6,-0.4,/
Nc1cc(S(=O)(=O)N2CCOCC2)ccc1Oc1ccc(F)cc1,-1,0.5,-1.4,-2,5%,11,-0.4,1.6
O=C1C=C(NCc2ccc(Cl)cc2)CC(c2ccco2)C1 (stereo not drawn),5,0.0,6.0,-1,32%,-13,-2.6,/
Cn1cccc1/C=C1\SC(=O)N(CC(=O)Nc2ccc(F)cc2)C1=O,45,-0.4,5.6,10,?,8,-2.4,0.8
COc1ccc(S(=O)(=O)N(C)CC(=O)Nc2ccccc2OC)cc1,-7,0.2,4.8,-4,4%,-2,0.9,/
CCOc1ncccc1C(=O)Nc1ccc(S(=O)(=O)Nc2nc(C)cc(C)n2)cc1,/,-0.9,/,0,-10%,/,-1.1,-6.4

From PubChem
